Assay outcomes: PubChem BioAssay, several laboratories
A1 inh: inhibitors of the anti-apoptotic protein A1, read as caspase activation; MEF A1-2A-BIM cells, Caspase-Glo 3/7 luminescence, 3 h; percent of clofoctol response, vehicle zero; caspase activation, % (no concentration beside the values); 0.066% of 330,000 active;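 active = over half of replicate activation scores above 10%, or exactly half above 10 with the replicate mean above 10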;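 also: wells of about 30 µL received 50 nL stock; many hits fall short of the cut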
Calb FLC: affects C. albicans growth with fluconazole. C. albicans CaCi-2 (fluconazole-resistant clinical isolate) + fluconazole, Alamar Blue growth, 48 h. growth inhibition, % (no concentration beside the values). 0.57% of 300,000 active. AID 1979;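 active = most replicates above 75%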;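 also: all wells also contain fluconazole at 8 µg/ml as a sub-toxic cotreatment; 0% = median of DMSO wells and 100% = median of geldanamycin control wells; wells of about 8 µL received 7.5 nL stock; the first replicate is given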
Beta apoptosis: beta cell apoptosis inhibition; protection from apoptosis, % (no concentration beside the values); 0.8% of 300,000 active; AID 435005; INS-1E cytokine-induced death, ATP luminescence, 48 h; percent of positive-control rescue, neutral wells zero;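 active = all replicates at 75% or more, or half of them and the mean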;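 also: 0% = cytokine-treated negative control wells and 100% = positive control rescue; higher means more ATP so stronger rescue from cytokine killing; wells of about 40 µL received 100 nL stock; the first replicate is given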
T cruzi repl: T. cruzi replication inhibition; AID 1885; 1.4% of 300,000 active; T. cruzi beta-gal in NIH3T3, luminescence, 90 h; inhibition, % (no concentration beside the values);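 active = mean inhibition across valid replicates above about 55%, limit read from the data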;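 also: signal also drops with host cell toxicity which is not excluded here; 0% = plate median of DMSO wells and 100% = zero luminescence signal; higher percent means less beta-gal luminescence so fewer parasites; stock transfer was 50 nL into about 50 µL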
LANA-H2A inh: blocks KSHV LANA binding to histone H2A/H2B. Q9QR71. cell-free LANA-H2A/H2B peptide, fluorescence polarization. inhibition, % (test concentration not listed). 0.6% of 320,000 active; in the data active = inhibition mostly above about 10%, no sharp cut-off; inactive = mostly below about 6.7%;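 also: stock transfer was 7.5 nL into about 10 µL; 0% = median of vehicle wells and 100% = median of positive control wells; one replicate is shown; the record names a cut of 25% in any replicate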
rRNA inh HTS: selective bacterial rRNA inhibition in E. coli; E. coli WT GFP vs humanized-ribosome RFP mutants, fluorescence, 24 h; active compounds read low; DMSO median 0, no signal -100; GFP signal change (wild-type ribosome), % (concentration not given with the values); 1.6% of 350,000 active;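 active = significant combined selectivity score with lowered wild-type GFP, culture density cut under 30%, mutant RFP and density less affected; inactive = any of these conditions unmet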; also: one replicate is shown; some compounds called inactive have numbers as strong as hits
ALR inh: blocks human ALR sulfhydryl oxidase activity | P55789 | purified ALR, DTT oxidation, H2O2 HRP-luminol luminescence | inhibition, % (concentration not given with the values) | 3.8% of 290,000 active | AID 485317;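 active = mean and each replicate at 75% or more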;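 also: stock transfer was 7.5 nL into about 7.5 µL; 0% = neutral wells and 100% = wells with inactivated enzyme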
Target sequence (P55789 whole entry, looked up): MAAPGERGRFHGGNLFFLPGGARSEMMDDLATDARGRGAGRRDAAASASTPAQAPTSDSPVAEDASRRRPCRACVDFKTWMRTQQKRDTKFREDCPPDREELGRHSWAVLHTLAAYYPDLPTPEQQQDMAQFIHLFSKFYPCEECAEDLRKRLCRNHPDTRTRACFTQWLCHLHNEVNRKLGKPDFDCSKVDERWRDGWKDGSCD
B2AR ag: activates human beta-2 adrenergic receptor causing internalization | P07550 | response, % (no concentration beside the values) | Am2.2-beta2AR cells, FAP receptor internalization, flow cytometry; reference of the scale not given here | AID 504454 | 0.43% of 340,000 active;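 active = response above a set limit, near 3 SD of response in nonfluorescent compounds, cut at about 42% in these data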;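 also: stock transfer was 100 nL into about 11 µL; a reference agonist was the positive control; negative values mostly stem from fluorescent compounds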
Target sequence (P07550 whole entry, looked up): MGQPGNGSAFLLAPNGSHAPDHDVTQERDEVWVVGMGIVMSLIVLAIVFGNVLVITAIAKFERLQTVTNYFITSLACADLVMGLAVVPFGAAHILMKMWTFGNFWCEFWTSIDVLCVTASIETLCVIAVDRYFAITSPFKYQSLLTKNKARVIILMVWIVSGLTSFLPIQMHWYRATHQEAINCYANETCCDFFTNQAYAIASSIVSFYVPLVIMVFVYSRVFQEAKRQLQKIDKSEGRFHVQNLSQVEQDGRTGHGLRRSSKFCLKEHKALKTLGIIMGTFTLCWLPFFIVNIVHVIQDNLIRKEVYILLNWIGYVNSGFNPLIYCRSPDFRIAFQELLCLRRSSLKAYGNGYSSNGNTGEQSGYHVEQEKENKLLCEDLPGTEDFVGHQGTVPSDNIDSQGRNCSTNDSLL
rRNA inh HTS OD600: also measured in rRNA inh HTS; calls as there; OD600 change, %; measured here: OD600 growth;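 optical density of the mix in the first replicate; 0 = DMSO median and -100 = no signal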
rRNA inh HTS RFP: second read-out of rRNA inh HTS, no call of its own (marks repeat the call); RFP signal change, %; measured here: RFP humanized mutant strains;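 first replicate; 0 = DMSO median and -100 = no signal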
An asterisk follows results filed as active. This is a subset; count on the stated rates, not on these rows.

For CCOc1cc(N2CCOCC2)c(OCC)cc1NC(=S)NCCCOC the results were A1 inh -1.7, Calb FLC 7, Beta apoptosis -9, T cruzi repl 28, LANA-H2A inh -2.6, rRNA inh HTS 14, ALR inh -22, B2AR ag 6, rRNA inh HTS OD600 11 and rRNA inh HTS RFP 4.2.
NC(=O)C1c2ccccc2Oc2ccccc21 was read as A1 inh 0.4, Calb FLC -2, Beta apoptosis -4, T cruzi repl -13, LANA-H2A inh 5.1, rRNA inh HTS 18, ALR inh -22, B2AR ag -13, rRNA inh HTS OD600 12 and rRNA inh HTS RFP 4.3.
Screening CC(C)CCn1c(Sc2nc3ccccc3o2)nc2c1c(=O)[nH]c(=O)n2C returned A1 inh -1.6, Calb FLC 35, Beta apoptosis -10, T cruzi repl 16, LANA-H2A inh -3.4, ALR inh 11 and B2AR ag -7.
`O=C(CN1CCN(c2ccccc2)CC1)Nc1nnc(-c2ccccc2)s1` gave A1 inh 0.7, Calb FLC -5, T cruzi repl -10, LANA-H2A inh -2.9, ALR inh 4 and B2AR ag 9.
Screening CCOC(=O)CSc1nc2cc3c(cc2cc1CC)OCCO3 returned A1 inh 0.6, Calb FLC -2, Beta apoptosis -2, T cruzi repl 10, LANA-H2A inh 1.4, ALR inh -4 and B2AR ag 1.
For COC(=O)C(C)(C)ONC(=O)Nc1ccc([N+](=O)[O-])cc1 the results were A1 inh -0.1, Calb FLC -2, Beta apoptosis -2, T cruzi repl -8, LANA-H2A inh 3.5, rRNA inh HTS 11, ALR inh 0, B2AR ag 8, rRNA inh HTS OD600 5 and rRNA inh HTS RFP 0.5.
For CCOc1ccc(CCNC(=O)COC(=O)c2c(OC)cccc2OC)cc1OCC the results were A1 inh 0.5, Calb FLC 8, Beta apoptosis -4, T cruzi repl 0, LANA-H2A inh 1.4, rRNA inh HTS -4, ALR inh -5, B2AR ag -3, rRNA inh HTS OD600 -4 and rRNA inh HTS RFP 0.4.
O=C(Nc1ccc(Cl)c([N+](=O)[O-])c1)C(Sc1ccccc1)c1ccccc1 (stereo unspecified) was read as A1 inh 0.3, Calb FLC -5, Beta apoptosis 14, T cruzi repl 64*, LANA-H2A inh -4.5, rRNA inh HTS -5, ALR inh 0, B2AR ag 9, rRNA inh HTS OD600 -5 and rRNA inh HTS RFP 31.
COc1ccc(S(=O)(=O)Nc2c(C)cccc2C)cc1-n1cnnn1 was read as A1 inh -0.5, Calb FLC -9, Beta apoptosis -2, T cruzi repl 1, LANA-H2A inh -0.9, rRNA inh HTS -1, ALR inh 1, B2AR ag -10, rRNA inh HTS OD600 -3 and rRNA inh HTS RFP -3.7.
For CN(C)CCCNC(=O)Cc1ccc(Br)cc1 the results were A1 inh -0.2, Calb FLC 4, Beta apoptosis -6, T cruzi repl -7, LANA-H2A inh 1.7, ALR inh -2 and B2AR ag 3.
Screening CC(C)(C)c1ccc(OCC(O)CNC(=O)c2ccccc2C(=O)O)cc1 (stereo unspecified) returned A1 inh 0.2, Calb FLC 1, Beta apoptosis -6, T cruzi repl -8, LANA-H2A inh -4.0, ALR inh -6 and B2AR ag -8.
For CC1CC(C)CN(S(=O)(=O)c2ccc3c(c2)oc(=O)n3CC(=O)N(C)Cc2ccccc2)C1 (stereo unspecified) the results were A1 inh -0.4, Calb FLC 6, Beta apoptosis 2, T cruzi repl 14, LANA-H2A inh -6.5, rRNA inh HTS 5, ALR inh -5, B2AR ag -7, rRNA inh HTS OD600 8 and rRNA inh HTS RFP 5.6.
For CC(C)C(OC(=O)c1cccs1)C(=O)NCc1ccco1 (stereo unspecified) the results were A1 inh 0.7, Calb FLC 1, Beta apoptosis -6, T cruzi repl -9, LANA-H2A inh 4.0, ALR inh 33 and B2AR ag 8.
Screening CCCSc1nc2c(c(=O)n1CC)SC(C)C2 (stereo unspecified) returned A1 inh 0.1, Calb FLC -2, Beta apoptosis -2, T cruzi repl -2, LANA-H2A inh 0.9, rRNA inh HTS 3, B2AR ag -12, rRNA inh HTS OD600 -10 and rRNA inh HTS RFP -5.8.
Screening O=C(Cc1cn(Cc2cccc(Cl)c2)c2ccccc12)N1CCCCCC1 returned A1 inh 0.2, Calb FLC -1, Beta apoptosis -5, T cruzi repl 59*, LANA-H2A inh 7.3, rRNA inh HTS -29, ALR inh -81, B2AR ag -14, rRNA inh HTS OD600 -32 and rRNA inh HTS RFP 2.4.
For CCOC(=O)CNC(=O)CCCCCC(=O)NCC(=O)OCC the results were A1 inh -0.1, Calb FLC 5, Beta apoptosis -3, T cruzi repl -4, LANA-H2A inh -3.8, ALR inh -3 and B2AR ag 20.
Screening CN(C(=O)c1cc2ccccc2cc1O)C1CCCCC1 returned A1 inh 0.3, Calb FLC -1, Beta apoptosis 1, T cruzi repl -23, LANA-H2A inh 7.3, rRNA inh HTS 3, ALR inh 0, B2AR ag 5, rRNA inh HTS OD600 -33 and rRNA inh HTS RFP -9.7.
Screening CCN(CC)C(=O)COc1ccc(-c2nnc(N3CCCCC3)c3ccccc23)cc1 returned A1 inh 0.5, Calb FLC -1, Beta apoptosis 5, T cruzi repl 23, LANA-H2A inh -0.6, ALR inh 22 and B2AR ag -4.
`C=CCN(CC=C)S(=O)(=O)c1ccc(NC(=S)NC(=O)c2ccco2)cc1` gave A1 inh -0.4, Calb FLC 30, Beta apoptosis 4, T cruzi repl -1, LANA-H2A inh 0.3, ALR inh -10 and B2AR ag -2.
Screening CSCCC(NC(=O)c1ccc(Cl)cc1)C(=O)NC(C)(C)C (stereo unspecified) returned A1 inh 0.4, Calb FLC -8, Beta apoptosis -1, T cruzi repl -9, LANA-H2A inh -0.3, ALR inh -7 and B2AR ag -10.
Screening COc1ccc(C(=O)N2CCC(C(=O)O)CC2)cc1 returned A1 inh -0.2, Calb FLC -1, Beta apoptosis -3, T cruzi repl -1, LANA-H2A inh -4.3, ALR inh 1 and B2AR ag 0.
For CCCCn1nc(C(=O)NNC(=O)c2ccncc2)c2ccccc2c1=O the results were A1 inh -0.5, Calb FLC 9, Beta apoptosis 0, T cruzi repl -5, LANA-H2A inh -8.9, ALR inh 4 and B2AR ag 0.
`COc1ccc(NC(=O)COC(=O)c2ccc(C)c(S(=O)(=O)N3CCCCC3)c2)cc1` gave A1 inh 0.8, Beta apoptosis 7, LANA-H2A inh 0.9, rRNA inh HTS -3, ALR inh -8, B2AR ag 12, rRNA inh HTS OD600 -10 and rRNA inh HTS RFP 0.3.
For COc1ccc(-n2c(SCc3cccnc3)nc3c(c2=O)SCC3)cc1OC the results were Calb FLC -1, T cruzi repl 34, rRNA inh HTS 4, B2AR ag 2, rRNA inh HTS OD600 -2 and rRNA inh HTS RFP -4.2.
Screening O=C(O/N=C\c1ccc(N2CCCCC2)c([N+](=O)[O-])c1)c1ccc(Cl)cc1Cl returned A1 inh -0.1, Calb FLC -3, Beta apoptosis 0, T cruzi repl -11, LANA-H2A inh 2.0, ALR inh 6 and B2AR ag 12.
For O=C(CCNS(=O)(=O)c1c(Cl)cccc1Cl)N1CCCC1 the results were A1 inh 0.1, Beta apoptosis -6, LANA-H2A inh 1.9, ALR inh -4 and B2AR ag -1.
Screening COc1cc(C(=O)NNC(=O)c2ccoc2C)cc(OC)c1OC returned A1 inh 1.0, Calb FLC -5, Beta apoptosis -1, T cruzi repl -4, LANA-H2A inh -1.6, rRNA inh HTS -1, ALR inh -3, B2AR ag 21, rRNA inh HTS OD600 2 and rRNA inh HTS RFP -2.7.
Screening c1cc(CNCC2CCCO2)ccn1 (stereo unspecified) returned A1 inh -0.8, Calb FLC -14, Beta apoptosis 5, T cruzi repl -8, LANA-H2A inh -3.9, ALR inh -1 and B2AR ag -4.
For Cc1cccc(NC2SC(=O)N(c3ccccc3)C2=O)c1 (stereo unspecified) the results were A1 inh -0.1, Calb FLC -1, Beta apoptosis -3, T cruzi repl -18, LANA-H2A inh -3.3, ALR inh -15 and B2AR ag 16.
Screening COc1ccc(C(=O)N2CCN=C2SC)cc1 returned A1 inh -0.5, Calb FLC 4, Beta apoptosis -1, T cruzi repl 0, LANA-H2A inh -1.3, rRNA inh HTS 5, ALR inh -2, B2AR ag -3, rRNA inh HTS OD600 9 and rRNA inh HTS RFP 1.9.
For Cn1cncc1C#Cc1ccc2c(=O)c3ccccc3oc2c1 the results were A1 inh 0.5, Beta apoptosis -2, LANA-H2A inh -1.6, rRNA inh HTS -2, ALR inh -2, B2AR ag -1, rRNA inh HTS OD600 11 and rRNA inh HTS RFP 7.1.
Screening CC(=O)Nc1nc2nc(-c3ccccc3)cc(-c3ccccc3)n2n1 returned A1 inh 1.0, Calb FLC 17, T cruzi repl 0, LANA-H2A inh -2.4, ALR inh 2 and B2AR ag -15.
For COc1c2ccoc2c(OC[C@@H](O)C(C)(C)O)c2oc(=O)ccc12 the results were A1 inh 0.3, Calb FLC 12, Beta apoptosis 0, T cruzi repl -16, LANA-H2A inh 3.7, rRNA inh HTS 3, ALR inh -14, B2AR ag -8, rRNA inh HTS OD600 9 and rRNA inh HTS RFP -0.2.
Screening CCOC(=O)c1cccc(NC(=O)CSc2nnc(-c3ccoc3C)n2CC)c1 returned A1 inh -1.5, Calb FLC 0, Beta apoptosis -10, T cruzi repl 2, LANA-H2A inh 1.6, ALR inh -4 and B2AR ag -5.
Screening CSc1nc2ccccc2n1Cc1cccc(F)c1 returned A1 inh -0.5, Calb FLC -6, T cruzi repl -7, LANA-H2A inh -1.1, ALR inh -4 and B2AR ag 9.
`O=C1c2cccc3c(N4CCCCC4)ccc(c23)C(=O)N1c1ccccc1O` gave A1 inh -0.3, Calb FLC -34, Beta apoptosis 9, T cruzi repl 27, LANA-H2A inh 0.8, rRNA inh HTS 84, ALR inh -11, B2AR ag -130, rRNA inh HTS OD600 -55 and rRNA inh HTS RFP -2.1.
Screening Cc1cccc(OCC(=O)NCC(=O)N/N=C/c2cccs2)c1 returned A1 inh 0.7, Calb FLC 1, Beta apoptosis -6, T cruzi repl -1, LANA-H2A inh 6.3, ALR inh 0 and B2AR ag 1.
Screening N#Cc1c(N)nc(SCc2ccccn2)c(C#N)c1-c1cccs1 returned A1 inh 2.1, Calb FLC -24, Beta apoptosis 5, T cruzi repl -2, LANA-H2A inh -1.4, ALR inh -4 and B2AR ag -25.
Screening Cc1cccc(NC(=O)C2CCN(S(=O)(=O)c3ccc4ccccc4c3)CC2)n1 returned A1 inh 0.2, Calb FLC -1, T cruzi repl -1, LANA-H2A inh 4.4, rRNA inh HTS -10, ALR inh 2, B2AR ag 3, rRNA inh HTS OD600 -10 and rRNA inh HTS RFP 1.4.
For COC(=O)Cn1c(CCC(=O)O)ccc1-c1ccccc1 the results were A1 inh 0.0, Calb FLC 2, Beta apoptosis -1, T cruzi repl -13, LANA-H2A inh 2.0, rRNA inh HTS 1, ALR inh 9, B2AR ag 1, rRNA inh HTS OD600 3 and rRNA inh HTS RFP 2.7.
`CCC1CCCCN1CCCNC(=O)CC1Oc2ccc(C)cc2NC1=O` (stereo unspecified) gave A1 inh -0.2, Calb FLC 3, Beta apoptosis -4, T cruzi repl -13, LANA-H2A inh 0.4, rRNA inh HTS 15, ALR inh -5, B2AR ag -3, rRNA inh HTS OD600 8 and rRNA inh HTS RFP -1.2.
